A1 inh: inhibitors of the anti-apoptotic protein A1, read as caspase activation. MEF A1-2A-BIM cells, Caspase-Glo 3/7 luminescence, 3 h; percent of clofoctol response, vehicle zero. caspase activation, % (concentration not given with the values). 0.066% of 330,000 active. AID 2462;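 active = over half of replicate activation scores above 10%, or exactly half above 10 with the replicate mean above 10; inconclusive = replicate mean below 10 yet half the replicates above 10; inactive = over half of replicates below 10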;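 also: wells of about 30 µL received 50 nL stock; many hits fall short of the cut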
Beta apoptosis: blocks beta cell apoptosis. 0.8% of 300,000 active. INS-1E cytokine-induced death, ATP luminescence, 48 h; percent of positive-control rescue, neutral wells zero. protection from apoptosis, % (concentration not given with the values). AID 435005;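 active = all replicates at 75% or more, or half of them and the mean; inconclusive = half reach 75% but not the mean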;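 also: 0% = cytokine-treated negative control wells and 100% = positive control rescue; higher means more ATP so stronger rescue from cytokine killing; wells of about 40 µL received 100 nL stock; the first replicate is given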
T cruzi repl: blocks replication of Trypanosoma cruzi; T. cruzi beta-gal in NIH3T3, luminescence, 90 h; inhibition, % (concentration not given with the values); 1.4% of 300,000 active;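 active = mean inhibition across valid replicates above about 55%, limit read from the data; inconclusive = mean below that limit but half or more replicates reach it; inactive = mean below it, under half of replicates reach it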;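 also: signal also drops with host cell toxicity which is not excluded here; 0% = plate median of DMSO wells and 100% = zero luminescence signal; higher percent means less beta-gal luminescence so fewer parasites; stock transfer was 50 nL into about 50 µL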
LANA-H2A inh: blocks KSHV LANA binding to histone H2A/H2B; cell-free LANA-H2A/H2B peptide, fluorescence polarization; inhibition, % (concentration not given with the values); 0.6% of 320,000 active; AID 2629; in the data active = inhibition mostly above about 10%, no sharp cut-off; inactive = mostly below about 6.7%;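 also: stock transfer was 7.5 nL into about 10 µL; 0% = median of vehicle wells and 100% = median of positive control wells; one replicate is shown; the record names a cut of 25% in any replicate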
Target sequence (Q9QR71 whole entry, looked up): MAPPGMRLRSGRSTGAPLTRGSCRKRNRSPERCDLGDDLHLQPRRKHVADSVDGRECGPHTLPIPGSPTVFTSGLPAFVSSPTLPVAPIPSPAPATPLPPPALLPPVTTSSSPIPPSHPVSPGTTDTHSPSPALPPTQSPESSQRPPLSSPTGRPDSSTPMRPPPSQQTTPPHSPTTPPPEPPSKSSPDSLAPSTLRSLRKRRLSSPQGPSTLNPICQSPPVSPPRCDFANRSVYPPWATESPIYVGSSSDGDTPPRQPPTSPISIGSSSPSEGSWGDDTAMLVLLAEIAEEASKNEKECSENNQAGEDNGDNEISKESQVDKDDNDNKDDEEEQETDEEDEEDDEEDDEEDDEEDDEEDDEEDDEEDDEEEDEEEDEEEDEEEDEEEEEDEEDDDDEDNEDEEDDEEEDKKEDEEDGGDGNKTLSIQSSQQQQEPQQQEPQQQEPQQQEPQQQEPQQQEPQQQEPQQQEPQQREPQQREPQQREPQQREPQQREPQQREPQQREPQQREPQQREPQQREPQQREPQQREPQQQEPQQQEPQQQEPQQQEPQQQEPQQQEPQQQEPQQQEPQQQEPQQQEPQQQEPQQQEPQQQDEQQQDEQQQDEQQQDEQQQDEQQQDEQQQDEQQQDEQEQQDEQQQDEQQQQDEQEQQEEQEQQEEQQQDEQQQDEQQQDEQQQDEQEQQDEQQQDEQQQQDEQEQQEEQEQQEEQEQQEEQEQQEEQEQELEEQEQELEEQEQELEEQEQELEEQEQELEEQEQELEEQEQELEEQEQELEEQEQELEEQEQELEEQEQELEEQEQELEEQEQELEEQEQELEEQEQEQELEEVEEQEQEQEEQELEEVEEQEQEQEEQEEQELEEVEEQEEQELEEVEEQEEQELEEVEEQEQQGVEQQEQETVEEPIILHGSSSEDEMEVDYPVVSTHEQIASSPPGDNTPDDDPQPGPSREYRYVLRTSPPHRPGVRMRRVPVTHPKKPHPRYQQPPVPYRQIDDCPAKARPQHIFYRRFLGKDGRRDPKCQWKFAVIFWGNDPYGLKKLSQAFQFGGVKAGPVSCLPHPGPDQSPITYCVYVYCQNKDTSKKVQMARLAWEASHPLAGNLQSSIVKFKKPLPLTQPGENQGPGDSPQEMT
AF4-AF9 inh: MLL-AF4/AF9 protein interaction inhibition; P42568; AlphaScreen, biotin-AF4 peptide binding to FLAG-AF9; inhibition, % at 10 µM; 0.47% of 350,000 active;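 active = every replicate reaching a set inhibition limit, whatever the replicate mean, cut at about 25% in these data; inconclusive = mean inhibition reaches that limit but some replicates miss it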;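 also: 0% = plate neutral control median and 100% = total signal loss; the record names both 10 and 1 µM as test concentration; the first replicate is given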
Vif TR-FRET: HIV-1 Vif–A3G interaction blockers – biochemical, TR-FRET, GST-Vif 1-94, biotin-A3G peptide, dose response retest, primary screen (AID 1117319); TR-FRET GST-Vif / biotin-A3G peptide binding; higher % means a stronger effect; test concentration not given here; strong numbers were not always called active; inhibition, %, or IC50 in µM where a hit was titrated; 0.57% of 260,000 active;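 active = above the screen mean plus three standard deviations and confirmed in dose response; inconclusive = results disagree or hit not tested in dose response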;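 also: Vif residues 1-94 fused to GST binding biotinylated APOBEC3G peptide 110-148; 0% = full assay without inhibitor and 100% = GST in place of GST-Vif; retest series ran down from 100 µM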
RanGTP-Impb inh: disruptors of Ran-importin-beta complex formation – biochemical, FRET, CFP-Ran, YFP-importin-beta, homogeneous, primary screen. 1.1% of 300,000 active. cell-free CFP-Ran/YFP-importin-beta FRET ratio. inhibition, % (test concentration not listed). AID 2216;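 active = most replicates above 15%; inconclusive = exactly half above 15%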;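 also: 0% = DMSO wells and 100% = Ran loaded with GDP instead of GTP; wells of about 40 µL received 100 nL stock; the first replicate is given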
Calb FLC: C. albicans growth modulation with fluconazole; C. albicans CaCi-2 (fluconazole-resistant clinical isolate) + fluconazole, Alamar Blue growth, 48 h; growth inhibition, % (test concentration not listed); 0.57% of 300,000 active; AID 1979;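 active = most replicates above 75%; inconclusive = exactly half above 75%; inactive = most below 75%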;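 also: all wells also contain fluconazole at 8 µg/ml as a sub-toxic cotreatment; 0% = median of DMSO wells and 100% = median of geldanamycin control wells; wells of about 8 µL received 7.5 nL stock; the first replicate is given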
* hit, by the source's call; ? = inconclusive; / = no result given; & = joins results of further samples.

Start of the data: the first two entries as a preview:
SMILES	A1 inh	Beta apoptosis	T cruzi repl	LANA-H2A inh	AF4-AF9 inh	Vif TR-FRET	RanGTP-Impb inh	Calb FLC
Cc1nc2ccccn2c1/C(O)=C1\C(=O)C(=O)N(CCN2CCOCC2)C1c1cccs1 (stereo not given)	1.3	-2	-4	-2.0	1.8	0%	4.5	-6
CCOc1ncccc1C(=O)OCC(=O)c1ccc(Br)s1	-4.3	-2	/	2.7	-2.6	-26%	/	/

The whole of this part, from the start:
SMILES	A1 inh	Beta apoptosis	T cruzi repl	LANA-H2A inh	AF4-AF9 inh	Vif TR-FRET	RanGTP-Impb inh	Calb FLC
Cc1nc2ccccn2c1/C(O)=C1\C(=O)C(=O)N(CCN2CCOCC2)C1c1cccs1 (stereo not given)	1.3	-2	-4	-2.0	1.8	0%	4.5	-6
CCOc1ncccc1C(=O)OCC(=O)c1ccc(Br)s1	-4.3	-2	/	2.7	-2.6	-26%	/	/
CCn1c(C(=O)O)c(CC(=O)Nc2cccc(C(F)(F)F)c2)c2ccccc21	0.5	-4	0	-8.4	-2.0	/	2.4	-2
COCC(C)N1CCC(Oc2ccc(C(=O)N3CCCC3)cc2)CC1 (stereo not given)	0.5	-2	2	2.4	0.2	/	0.5	1
CCOC(=O)c1c(N)sc(C(O)(C(F)(F)F)C(F)(F)F)c1-c1ccc(Cl)cc1	0.2	2	7	-3.7	/	-6%	-3.0	22
Cc1ccc(NC(=O)C(=O)NCCN2CCN(S(C)(=O)=O)CC2)cc1C	0.5	-2	10	4.2	-1.6	10%	5.6	7
COc1ccc(C(=O)Nc2nnc(-c3ccco3)s2)cc1	-6.7	4	-3	4.1	/	-4%	-1.8	-4
O=C(c1ccc([N+](=O)[O-])cc1)N1CCN(C(=O)c2cccnc2)CC1	0.4	-7	18	1.3	1.6	/	7.3	24
Cc1cccc(Cc2c(C)[nH]c(=O)c(C#N)c2C)c1	1.0	4	0	3.6	-4.3	26%	1.3	33
CC(C(=O)N1CCc2ccccc21)N(C)CC(=O)Nc1ccc(F)cc1 (stereo not given)	0.4	7	/	4.5	0.6	/	/	/
Cc1noc(C)c1S(=O)(=O)N(C)CC(=O)NCc1ccccc1	0.0	0	-18	/	/	24%	3.0	13
CSCCC(NC(=O)COc1ccccc1)C(=O)OCCOc1ccc(F)cc1 (stereo not given)	-0.8	2	-12	-3.5	7.9	-1%	6.8	-2
O=C(Cn1ncn2c(cc3sccc32)c1=O)NC1CCCC1	0.0	-13	-8	1.1	1.1	/	2.2	28
O=C(Oc1ccc(-c2ccccc2)cc1)N1CCCCC1	-0.1	5	26	1.4	/	8%	-2.9	-37
CCN1CCN(C(c2cccs2)C(C)NC(=O)c2cccc(OC)c2OC)CC1 (stereo not given)	0.6	7	0	0.5	3.0	31%	4.2	-28
CCCCOc1ccc(C(=O)N(C)CC(=O)Nc2ccc(C)cc2)cc1	-1.5	-5	-7	2.5	-1.0	-8%	-1.2	5
CCN(Cc1nc2ccccc2c(=O)[nH]1)Cc1cc(=O)oc2cc(C)c(C)cc12	-0.6	-2	31	-5.6	/	-2%	1.7	4
COc1ccc(CN2CCN(CCc3ccccc3)C(CCO)C2)cc1Cn1cncn1 (stereo not given)	0.9	-8	26	0.5	1.8	?	-2.2	-9
N/C(COc1ccc(C(=O)O)cc1)=N\O	-0.4	-6	-7	-3.1	/	1%	-0.4	-2
Cc1cc(OCCN2CCOCC2)ccc1[N+](=O)[O-]	0.1	-3	0	-1.8	/	22%	2.1	13
COc1cc(/C=C(\C#N)c2nc3ccccc3[nH]2)cc(Br)c1OCc1ccccc1	1.5	32	29	/	-2.3	11%	11	-3
Nc1c(Cl)ncnc1NCCc1ccc(O)cc1	-0.7	51	-12	3.2	1.2	10%	1.0	0
N#CC(Cc1ccccc1OC(F)F)c1nc2ccccc2[nH]1 (stereo not given)	-2.9	4	3	0.3	0.3	-5%	3.4	-11
Cc1ccc(-c2cc(C#N)c(=O)n(Cc3c(Cl)cccc3Cl)c2)cc1	-0.5	-5	-23	0.7	/	-28%	1.7	33
Cc1cccc(C(=O)O/N=C(\N)Cc2ccc([N+](=O)[O-])cc2)c1	2.3	-4	16	-1.3	/	-3%	1.3	-5
COc1ccc(-c2cc(=O)n(-c3ccc([N+](=O)[O-])cc3)[nH]2)cc1	-3.5	5	4	0.8	/	4%	-2.4	13
COc1ccc(S(=O)(=O)Nc2cccc3c2O[C@H](CN(C)S(=O)(=O)c2cn(C)cn2)[C@@H](C)CN([C@H](C)CO)C3=O)cc1	-0.3	-1	/	-2.3	-1.5&-0.1	/	/	/
COC(=O)Cc1c(C)nc2nc(NCc3c(F)cccc3Cl)[nH]n2c1=O	0.1	-4	-12	2.5	/	20%	-1.0	-8
O=C(NC1CCN(Cc2ccccc2)CC1)C1CCN(S(=O)(=O)c2cccc3nsnc23)CC1	2.7	1	43	4.0	/	-4%	2.4	-3
COCCNC(=O)c1ccc(N2CCCCC2)c(NS(=O)(=O)c2ccc(C)cc2)c1	1.6	0	/	-1.1	/	-1%	/	/
COc1ccc(CN(C)C(C)C(=O)Nc2ccc([N+](=O)[O-])cc2Cl)cc1OC (stereo not given)	-0.4	0	10	-5.6	/	/	3.7	6
CCC(=O)NC(=S)Nc1ccc(NC(=O)c2ccc(Br)o2)cc1	-0.7	-3	7	-3.7	-0.9	-3%	0.8	-3
CCOC(=O)c1nc(C)sc1-c1ccnn1S(=O)(=O)c1ccccc1C(F)(F)F	0.2	1	/	1.7	4.1	-2%	-0.9	-10
NNc1ccc(Cc2ccc(Cl)cc2Cl)nn1	0.1	-5	26	-4.8	7.4	3%	?	-1
C#Cc1ccc([C@H]2C=C(C(=O)NCc3ccccc3)O[C@@H](OCC)[C@@H]2CCCO)cc1	0.5	-2	10	1.4	-0.8&-1.3	20%	5.9	28
COc1ccc(OCCCc2c(C)n[nH]c2C)cc1	-0.5	3	2	-2.1	/	2%	0.9	-13
N#Cc1c(Nc2ccccc2)c(/C=N/N=C/c2ccccc2)c[nH]c1=O	0.0	-8	5	1.6	/	/	5.9	-28
COc1ccc(S(=O)(=O)N2CCCC2C(=O)Nn2cnnc2)cc1 (stereo not given)	0.3	-4	-3	-2.3	/	1%	0.3	9
N=c1sccn1CC(=O)Nc1cc(S(=O)(=O)N2CCCCC2)ccc1Cl	0.8	-1	-11	2.9	-1.6	/	-3.4	-28
COc1ccc(/C(O)=C2/C(=O)C(=O)N(CCN(C)C)C2c2ccccc2)cc1Cl (stereo not given)	0.1	-1	2	-1.7	/	14%	-0.2	1
CNC(=O)c1ccc(S(=O)(=O)c2ccc(Cl)cc2)c(NC(C)=O)c1	-0.2	/	5	-0.6	-5.7	0%	?	-3
Cc1ccc(NC2CCCN(C(=O)CCc3ccncc3)C2)cc1C (stereo not given)	0.1	-2	63*	-14	3.9	/	-2.4	23
CC(=O)c1ccc(NC(=O)CC(C)S(=O)(=O)c2ccc3c(c2)CCN3C(C)=O)cc1 (stereo not given)	0.6	-4	-8	-0.6	-2.5	/	-3.7	0
O=C(c1ccccc1)c1ccc2c(c1)OCCOCCOCCOCCO2	-0.8	-37	-3	1.6	-0.6	?	-3.7	-8
Cc1ccc(S(=O)(=O)Nc2cc(C)on2)cc1	-1.2	-6	-6	0.7	0.7	-2%	1.5	1
Cc1ccc2oc(=O)n(CCOc3ccccc3Cl)c2c1	-0.4	0	-2	2.2	3.5	-5%	1.1	6
COc1ccc([N+](=O)[O-])cc1NC(=O)C(C)Sc1ccccc1 (stereo not given)	0.3	-7	3	-6.2	/	6%	4.5	-3
O=C(NC1CCCC1)C(c1ccc(O)cc1)N(CC1CCCO1)C(=O)C1COc2ccccc2O1 (stereo not given)	-0.8	-4	31	-2.8	-1.5	29%	12	-1
COc1ccc(C=O)c2[nH]c3c(Cl)ncnc3c12	/	/	-7	/	-2.7	1%	2.3	-1
CCC(=O)N(CC)c1nc(-c2ccc(OC)cc2)cs1	/	-1	5	0.5	/	-5%	8.8	-4
COc1cc2c(cc1OC)C(C)N(C(=O)c1ccc(Br)o1)CC2 (stereo not given)	-0.9	3	-10	2.7	/	/	-1.4	7
Cc1cccc2sc(NNC(=O)c3cc(-c4cccs4)nc4ccccc34)nc12	-0.3	/	17	-0.2	-1.8	/	1.1	85*
FC(F)(F)c1ccccc1/C=N/n1c(COc2ccccc2)n[nH]c1=S	-0.1	0	3	-2.1	-17	/	-1.8	8
Nc1n[nH]c(N)c1N=Nc1ccc(Cl)cc1Cl	-1.4	10	-12	7.8	3.7	/	-2.4	21
O=C(Cc1cccs1)NNC(=S)NCc1ccco1	0.5	-2	-6	3.4	-1.7	-2%	-0.4	11
O=c1c2c(nc3cc(-c4ccccc4)[nH]n13)CCS2	-5.5	-2	-13	1.1	/	25%	-4.9	-5
Cn1nc(C(=O)Nc2ccccc2N2CCOCC2)ccc1=O	0.8	-3	/	4.1	-3.4	/	/	/
COC(=O)c1ccc2c(=O)n(CCCCCC(=O)NC(C)C)c(=O)[nH]c2c1	1.6	5	1	2.0	7.0	1%	1.0	17
Cc1csc(SCC(=O)N(C)CC(=O)Nc2ccc(F)cc2)n1	-0.4	1	-16	-7.6	/	/	-1.7	24
CCCc1nc2ccccc2c(=O)n1CC(=O)c1ccc(F)cc1	1.4	2	4	0.7	1.1	-4%	-2.9	-20

Other structures:
SMILES	A1 inh	Beta apoptosis	T cruzi repl	LANA-H2A inh	AF4-AF9 inh	Vif TR-FRET	RanGTP-Impb inh	Calb FLC
O=C(c1ccco1)N(Cc1ccccc1)c1cccc([N+](=O)[O-])c1	0.5	-9	14	-6.9	3.0	-4%	4.2	-11
CCOC(=O)c1c(S(=O)(=O)NCC(=O)NCc2cccc(C)c2)c(C)n(C)c1C	0.4	-2	-16	1.5	0.4	/	-2.4	2
COC(=O)c1sc2ncccc2c1OCc1ccccc1Cl	1.9	-1	11	-2.8	/	8%	-2.9	10
COc1ccc(NC(=O)CSc2nccn2-c2cccc(OC)c2)cc1	-0.3	-5	/	-3.6	/	3%	2.3	-37
O=C(COC(=O)c1ccc(=O)n(Cc2ccccc2)n1)Nc1ccc2c(c1)OCCO2	1.1	-2	-20	-1.9	/	-2%	0.5	3
CCN1CCc2c(C#N)c(N3CCOCC3)nc(NCCO)c2C1	0.7	1	7	-1.9	/	1%	54*	-3
Cc1ccc(CNC(=O)C(=O)NCC2CCCN2S(=O)(=O)c2cc(C)ccc2C)cc1 (stereo not given)	-0.5	0	13	0.7	3.7	2%	-0.6	-2
CC(C)C(NC(=O)c1ccco1)C(=O)OCC(=O)NCCc1ccccc1 (stereo not given)	-0.5	-3	/	0.2	-0.8	/	/	/
CN(C)CCCOc1cccc(Oc2ccccc2)c1	0.5	-1	43	-3.1	1.4	0%	2.0	-13
C=CCN(C(=O)CNC(=O)c1ccco1)C(C(=O)NC1CCCC1)c1cccs1 (stereo not given)	-0.5	-3	10	1.8	-0.6	-5%	0.4	-7
COc1ccc2ccccc2c1C1NC(=O)NC(C)=C1[N+](=O)[O-] (stereo not given)	1.3	-4	9	-0.5	-25	-8%	-2.9	-3
CCOC(=O)c1nc(S(C)(=O)=O)ncc1N1CCOCC1	-0.8	/	-18	0.8	/	7%	?	-2
C=CCN1CCN(C(=O)CCc2ccccc2)CC1	0.3	2	7	1.9	1.7	/	4.0	-2

Screens (PubChem)
